Cruzain Triton – qHTS Assay for Promiscuous and Specific Inhibitors of Cruzain (with detergent) | actives 0.43% (n = 200,000) | Cruzipain (Trypanosoma cruzi), P25779 | purified cruzain, Z-FR-AMC fluorescence, 0.01% Triton | Potency, µM, for the others: max response, negative = inhibition, usual class: inhibitors;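 further: plate controls were neutral wells for no effect and buffer without enzyme for full effect; nearly all actives have a fitted effect of over 40% in size; top concentration of the series not given in the record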
Target sequence (P25779 123-467 limits assumed): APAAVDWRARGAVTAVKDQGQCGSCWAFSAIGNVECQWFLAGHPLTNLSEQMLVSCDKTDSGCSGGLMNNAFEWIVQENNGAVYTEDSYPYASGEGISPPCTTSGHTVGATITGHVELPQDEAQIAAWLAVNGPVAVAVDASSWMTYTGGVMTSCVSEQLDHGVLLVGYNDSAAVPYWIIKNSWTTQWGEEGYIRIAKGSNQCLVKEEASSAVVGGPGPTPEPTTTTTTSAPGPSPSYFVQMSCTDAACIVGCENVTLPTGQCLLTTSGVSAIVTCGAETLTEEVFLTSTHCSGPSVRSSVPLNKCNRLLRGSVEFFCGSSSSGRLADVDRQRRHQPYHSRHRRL
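Enzyme 1.5 nM, Z-FR-AMC 2 uM, NaOAc 100 mM pH 5.5, DTT 5 mM, Triton X-100 0.01%; 15 min RT compound preincubation; kinetic ex360/em450, 60 s delta.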
NS1 inh – qHTS Assay for Inhibitors of Influenza NS1 Protein Function. S. cerevisiae slowed by influenza A NS1, growth recovery by OD600. Potency, µM (highest dose often 46.1 µM), inactives show at the top dose activity, positive = more growth. actives 0.4% (n = 270,000). AID 2326, 2010; active means well fitted rising curve with a large enough effect; inconclusive means small, poorly fitted or top-dose-only effect; inactive means no such curve, though single readings can be large or run the other way; further: nearly all actives have a fitted effect of over 50% in size
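Read-out: OD600 growth recovery of NS1-expressing budding yeast. Cells grown overnight at 30C in -URA glucose medium, washed, resuspended and diluted 1:100 in 2% galactose assay medium, pH 6.0. Same strain lacking NS1 served as positive control.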
SARS PLpro yeast – qHTS of Yeast-based Assay for SARS-CoV PLP; S. cerevisiae expressing SARS-CoV PLpro, growth rescue; control for the full effect not named in the record; Potency, µM (highest dose often 32.9 µM), for inactives: top-dose activity, positive = growth rescue; actives 0.19% (n = 330,000); active means well fitted rising curve with a large enough effect; inconclusive means small, poorly fitted or top-dose-only effect; inactive means no such curve, though single readings can be large or run the other way; further: 0% is about no effect; nearly all actives have a fitted effect of over 55% in size; growth read by luminescence after 48 h
LASV entry inh – qHTS for Inhibitors of binding or entry into cells for Lassa Virus | Lassa virus pseudotype entry inhibition, cell reporter; control for the full effect not named in the record | Potency, µM (titrated, usually from 37.9 µM), without a hit: at the top dose activity change, negative = inhibition, usual class: inhibitors | actives 1.2% (n = 300,000); active means well fitted inhibition curve with a large enough effect; inconclusive means small, poorly fitted or top-dose-only effect, or effect the other way; inactive means flat fitted curve, though single readings scatter; tested in HEK293 cells; further: on the % scale 0 is the no-effect control and ±100 the full control effect; nearly all actives have a fitted effect of over 50% in size; luciferase read-out
Cruzain inh noDet – qHTS Assay for Promiscuous and Specific Inhibitors of Cruzain (without detergent). actives 2.3% (n = 200,000). Potency, µM, for the others: max response, negative = inhibition, most hits filed as inhibitors. Cruzipain (Trypanosoma cruzi), P25779. purified cruzain, Z-FR-AMC fluorescence, no detergent;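 further: plate controls were enzyme without inhibitor for no effect and buffer without enzyme for full effect; nearly all actives have a fitted effect of over 40% in size; top concentration of the series not given in the record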
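Purified cruzain at 1.5 nM, pre-incubated 15 min with compound at room temperature in 100 mM sodium acetate pH 5.5, 5 mM DTT, 0.00005% Triton X-100. Reaction started with 2 uM Z-FR-AMC; AMC fluorescence increase over 60 s gives rate.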
RE007 growth inh – qHTS Assay for Inhibitors of the HIV-1 protein Vpr; S. pombe RE007 Vpr strain, BacTiter-Glo ATP luminescence, 24 h; control for the full effect not named in the record; Potency, µM (doses to about 92.2 µM), without a hit: top-dose activity change, negative = less growth; actives 0.21% (n = 360,000); AID 651644, 2012; active = well fitted falling curve with a large enough effect; inconclusive = small, poorly fitted or top-dose-only effect; inactive = no such curve, though single readings can be large or run the other way;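 further: on the % scale 0 is the no-effect control and ±100 the full control effect; nearly all actives have a fitted effect of over 50% in size; the assay follows cell death caused by Vpr and the record does not say whether a fall means rescue or toxicity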
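Fission yeast RE007 carrying one integrated HIV-1 vpr copy, seeded at OD 0.01 in PMG+AL medium with 23 nL pinned compound. Grown 24 h at 30 degrees; viability read by BacTiter-Glo luminescence after 5 min.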
StopGo reporter – High Throughput Screening for Foot and Mouth Disease Virus Antivirals; human cells with a luciferase reporter of 2A StopGo recoding; control for the full effect not named in the record; Potency, µM (doses to about 57.9 µM), without a hit: top-dose signal change, negative = less light; actives 1.2% (n = 410,000); active = well fitted falling curve with a large enough effect; inconclusive = small, poorly fitted or top-dose-only effect; inactive = no such curve, though single readings can be large or run the other way; tested in HEK293T cells; further: on the % scale 0 is the no-effect control and ±100 the full control effect; nearly all actives have a fitted effect of over 45% in size; luciferase light after 4 h
Marburg entry inh – qHTS for inhibitors of binding or entry into cells for Marburg Virus; Marburg virus pseudotyped entry inhibition, cell reporter; control for the full effect not named in the record; about a third of the inactives were read at about 46 µM; actives 1.8% (n = 300,000); Potency, µM (series often up to 37.8 µM), inactives show at the top dose activity change, negative = inhibition, hits mostly inhibitors; active = well fitted inhibition curve with a large enough effect; inconclusive = small, poorly fitted or top-dose-only effect, or effect the other way; inactive = flat fitted curve, though single readings scatter; tested in HEK293 cells; about a fifth of its hits are not listed in these tables; further: on the % scale 0 is the no-effect control and ±100 the full control effect; luciferase read-out
* marks the source's active call; other numbers are inactive results; ? = inconclusive; . = no result given; [ ] = remark or other dose. Unless noted, the call rests on the fitted dose curve; in most records, active means well fitted curve in the direction sought with a large enough effect; inconclusive means small, poorly fitted or top-dose-only effect, or another doubt; inactive means no such curve, though single readings can be large; an effect the other way counts as inactive or inconclusive. Potency means the concentration at half of the fitted maximal effect. This is a random part of the collection; any-hit rate near 4.7%.

item	SMILES	Cruzain Triton	NS1 inh	SARS PLpro yeast	LASV entry inh
1	CCOc1ccc(C(=O)NCC(=O)OCC(=O)N2CCCCC2)cc1	-11.5%	1.9%	7.1%	3.9%
2	COc1ccc(NC(=O)CN(C)C(=O)c2cn(-c3ccccc3)nc2-c2cccnc2)cc1	.	.	.	?
3	CCCCN(C(=O)c1ccccc1OCc1ccc(F)cc1)c1c(N)n(CCC)c(=O)[nH]c1=O	.	10.6%	2.6%	-36.3%[46.1 µM]
4	NC(=O)c1ccc(NC(=O)COC(=O)CC23CC4CC(CC(Br)(C4)C2)C3)cc1	.	.	24.2%	?
5	O=C(Nc1ccc(Cn2cccn2)cc1)c1ccc(COc2ccc(Br)cc2)cc1	2.4%	5.1%	-2.8%	-12.7%
6	Cc1cc(OC(C)C(=O)NCCN2CCOCC2)c2c(C)c(C)c(=O)oc2c1 (configuration not stated)	.	8.8%	1.3%	.
7	C/C=C/Cn1c(SCc2ccc(Cl)cc2)nc2c1c(=O)[nH]c(=O)n2C	2.9%	?	-3.2%	?
8	COc1cccc(C2/C(=C(\O)c3ccc4c(c3)OCO4)C(=O)C(=O)N2CCN(C)C)c1OC (configuration not stated)	-9.5%	-0.2%	4.2%	-6.5%

item	Cruzain inh noDet	RE007 growth inh	StopGo reporter	Marburg entry inh
1	0.3%	-0.1%	32.6%[activator]	10.0%[46.1 µM]
2	.	-21.5%	-7.8%	-3.0%
3	.	14.8%	1.5%	-20.1%[46.1 µM]
4	.	3.9%	-17.8%	3.8%
5	12.6µM*	-11.8%	-18.9%	2.6%
6	.	-4.5%	-1.6%	.
7	-5.3%	7.3%	0.0%	?
8	-17.0%	-1.0%	3.7%	3.6%

Compounds listed so far that have a halogen (4):
item	SMILES	Cruzain Triton	NS1 inh	SARS PLpro yeast	LASV entry inh
3	CCCCN(C(=O)c1ccccc1OCc1ccc(F)cc1)c1c(N)n(CCC)c(=O)[nH]c1=O	.	10.6%	2.6%	-36.3%[46.1 µM]
4	NC(=O)c1ccc(NC(=O)COC(=O)CC23CC4CC(CC(Br)(C4)C2)C3)cc1	.	.	24.2%	?
5	O=C(Nc1ccc(Cn2cccn2)cc1)c1ccc(COc2ccc(Br)cc2)cc1	2.4%	5.1%	-2.8%	-12.7%
7	C/C=C/Cn1c(SCc2ccc(Cl)cc2)nc2c1c(=O)[nH]c(=O)n2C	2.9%	?	-3.2%	?

item	Cruzain inh noDet	RE007 growth inh	StopGo reporter	Marburg entry inh
3	.	14.8%	1.5%	-20.1%[46.1 µM]
4	.	3.9%	-17.8%	3.8%
5	12.6µM*	-11.8%	-18.9%	2.6%
7	-5.3%	7.3%	0.0%	?

Returning to the listing; the two compounds before the break are reprinted first.
item	SMILES	Cruzain Triton	NS1 inh	SARS PLpro yeast	LASV entry inh
7	C/C=C/Cn1c(SCc2ccc(Cl)cc2)nc2c1c(=O)[nH]c(=O)n2C	2.9%	?	-3.2%	?
8	COc1cccc(C2/C(=C(\O)c3ccc4c(c3)OCO4)C(=O)C(=O)N2CCN(C)C)c1OC (configuration not stated)	-9.5%	-0.2%	4.2%	-6.5%
9	COc1ccc(-n2nc(C(=O)NCC(=O)NC(C)C)c3ccccc3c2=O)cc1	.	9.5%	1.2%	-9.5%[46.1 µM]
10	O=C(c1ccc(CS(=O)c2ccccc2Cl)o1)N1CCN(c2cccc(C(F)(F)F)c2)CC1 (configuration not stated)	-10.6%	.	.	-12.5%[46.1 µM]
11	CC(NC(=O)COC(=O)c1ccccc1O)C1CC2CCC1C2 (configuration not stated)	.	.	-8.1%	-10.0%
12	NS(=O)(=O)c1ccc(CCNC(=S)Nc2ccc(F)cc2)cc1	.	7.0%	0.8%	1.6%[46.1 µM]
13	COC(=O)c1cc(C(=O)OC)cc(-n2c(C)cc(C=O)c2C)c1	.	-1.6%	-2.1%	10.3%
14	Cc1c(NC(=O)c2ccc(N(C)S(=O)(=O)c3ccccc3)cc2)c(=O)n(-c2ccccc2)n1C	.	.	3.7%	-0.9%
15	O=C(NC1CC1)c1cccc(Oc2ccccc2)c1	.	-32.2%	-0.3%	2.0%
16	Cc1c(CNCCc2ccccc2)c(C(=O)O)c(C)n1-c1ccccc1	.	1.9%	-0.3%	.

item	Cruzain inh noDet	RE007 growth inh	StopGo reporter	Marburg entry inh
7	-5.3%	7.3%	0.0%	?
8	-17.0%	-1.0%	3.7%	3.6%
9	.	-10.4%	-3.9%	1.4%[46.1 µM]
10	?	.	?	.
11	.	14.9%	-16.8%	?
12	.	-9.8%	-6.5%	-7.5%[46.1 µM]
13	.	21.0%	-4.0%	-5.8%[14.2 µM]
14	.	6.4%	-29.0%	-9.8%[46.1 µM]
15	.	49.5%	35.1%[activator]	-21.9%
16	.	-3.6%	-5.4%	.

item	SMILES	Cruzain Triton	NS1 inh	SARS PLpro yeast	LASV entry inh
17	Cc1ccc(NC(=O)CC2SC3=NCCCN3C2=O)c(C)c1 (configuration not stated)	0.9%	-73.9%	-10.5%	8.8%
18	CC1(C)Cc2nc3sc(C(=O)NCCO)c(N)c3cc2CO1	-5.0%	2.5%[9.22 µM]	6.1%	23.8%
19	CC(=O)Nc1nc2ccccc2n1Cc1ccccc1	4.1%	-2.2%	-3.4%	-12.7%
20	COc1ccccc1NC(=O)CCSc1nc(C)cs1	.	-1.6%	-5.9%	.
21	Oc1ccc(/C=N/NC(=S)Nc2cccnc2)c(O)c1O	.	-0.7%	24.2%	?
22	COc1ccc(CN2CCNC(=O)C2CC(=O)NCCC2=CCCCC2)c(F)c1 (configuration not stated)	.	-0.3%	0.8%	-32.5%
23	Nc1cc2c(cc1C(=O)c1cccc(Br)c1)OCCO2	.	-1.7%	-2.3%	?
24	CC(=O)c1ccc(NC(=O)c2sc(-n3nc(C)c(Cc4ccc5c(c4)OCO5)c3C)nc2C)cc1	-1.2%	.	.	14.0%[46.1 µM]

item	Cruzain inh noDet	RE007 growth inh	StopGo reporter	Marburg entry inh
17	-17.5%	?	16.7%	-4.0%
18	-11.1%	8.3%	48.9%[activator]	?
19	-2.6%	3.4%	.	-25.8%
20	.	-6.2%	2.6%	.
21	.	-17.8%	?	-28.2%[46.1 µM]
22	.	-18.5%	-14.9%	0.7%
23	.	-7.6%	-13.7%	?
24	-9.3%	.	?	10.5%[46.1 µM]

Shown in transposed form: 2 of the compounds above.
[20] COc1ccccc1NC(=O)CCSc1nc(C)cs1
[17] Cc1ccc(NC(=O)CC2SC3=NCCCN3C2=O)c(C)c1 (configuration not stated)
Screen / compound no.	20	17
Cruzain Triton	.	0.9%
NS1 inh	-1.6%	-73.9%
SARS PLpro yeast	-5.9%	-10.5%
LASV entry inh	.	8.8%
Cruzain inh noDet	.	-17.5%
RE007 growth inh	-6.2%	?
StopGo reporter	2.6%	16.7%
Marburg entry inh	.	-4.0%

New compounds follow:
item	SMILES	Cruzain Triton	NS1 inh	SARS PLpro yeast	LASV entry inh
25	CC(=O)c1ccc(NC(=O)COC(=O)C2CCN(S(=O)(=O)c3cccs3)CC2)cc1	.	.	-4.5%	18.9%
26	Cc1nc(-c2ccccn2)sc1C(=O)Nc1ccc(F)cc1	-5.1%	1.9%	-10.8%	4.2%
27	O=C(Nc1cccnc1)c1sc2cccc(F)c2c1Cl	.	-7.8%	-2.3%	.
28	Cc1cc(C)c2nc(-c3ccccn3)cc(C(=O)NCc3ccc(S(N)(=O)=O)cc3)c2c1	.	4.8%	0.6%	?
29	CN1C(=O)/C(=C/C=C2\SCCN2C)OC1=S	.	2.6%	0.9%	11.0%
30	CCOC(=O)c1cc(-c2ccco2)nc2c1c(C)nn2CCC#N	-2.8%	0.1%	-3.2%	-3.0%
31	Cn1c(N)cc(=O)[nH]c1=S	.	.	.	-1.2%

item	Cruzain inh noDet	RE007 growth inh	StopGo reporter	Marburg entry inh
25	.	2.6%	6.2%	8.8%
26	-0.1%	2.4%	15.8%	0.9%
27	.	?	33.2%[activator]	?
28	.	3.4%	-18.8%	11.2µM*
29	.	15.6%	0.0%	?
30	?	-13.6%	0.0%	-25.2%
31	.	5.0%	-5.1%	0.6%

Source: PubChem BioAssay
